Screening data from PubChem.
MgrA DNA FP: S. aureus MgrA activity modulators, primary screen, biochemical, S. aureus Newman, fluorescence polarization. MgrA-DNA binding. inhibition, %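 (about 10 µg/mL by stock and volumes)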. 0.13% of 84,000 active;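 active = above 50% in either of two replicates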;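 also: 0% = protein plus DNA without compound and 100% = DNA alone without protein; higher means less MgrA bound to DNA so lower polarization; one replicate is shown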
Sa helicase inh: inhibitors of S. aureus replicative helicase, primary screen, biochemical, fluorescence unwinding readout; replicative DNA helicase (DnaC/DnaB), Staphylococcus aureus; purified S. aureus helicase, fluorescence unwinding assay; about half of the hits fall short of the stated cut; inhibition, %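 (tested at about 80 µM)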; 0.05% of 120,000 active; AID 485395, 2010;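 active = both duplicates at 50% or more, or one of them with a favoured structure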;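 also: 0% = mean of negative control wells and 100% = mean of positive control wells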
Starred values were filed as active, the others as inactive; x = no result given. Not all compounds are listed. The share of hits here may be higher or lower than overall.

Below each SMILES – Sa helicase inh, MgrA DNA FP
1. NNC(=O)/C(=C\c1ccccc1)CCO
    -1, 1.3
2. NC(N)=Nc1nc(-c2ccc(-c3ccccc3)cc2)cs1
    x, -4.2
3. Cc1ccc(S(=O)(=O)Nc2ccc(Br)cc2C(NCC(=O)O)c2ccccc2)cc1 (stereo unspecified)
    3, 1.6
4. CCOC(=O)c1ccc(NC(=O)C2CC(=O)N(C)C(=Nc3cccc(C(F)(F)F)c3)S2)cc1 (stereo unspecified)
    x, 0.0
5. COC(=O)c1ccccc1NC(=O)c1cc2cccnc2n(C)c1=O
    9, x
6. CC(/C=C/c1ccc(Cl)cc1)=N\O
    14, x
7. CCN1CCN(C(c2cccs2)C(C)NS(=O)(=O)c2ccc(C)cc2)CC1 (stereo unspecified)
    3, 0.2
8. O=C1NC(=O)/C(=C/c2ccc(OS(=O)(=O)c3ccc(Cl)cc3)cc2)N1
    x, -2.2
9. O=S(=O)(Nc1ccccc1Cl)c1ccccc1
    14, x
10. CCCOC(=O)c1ccc(NC(=O)CO/N=C/c2nc3cc(Cl)ccc3o2)cc1
    3, x
11. Cc1oncc1C(=O)NC1CCCCC1
    x, 0.6
12. Cc1cc(C)nc(-n2nc(C)cc2NC(=O)CNC(C)c2ccccc2)n1 (stereo unspecified)
    -10, x
13. O=C(Nc1ccc(Cl)cc1)OCCS(=O)(=O)c1ccc(C(F)(F)F)cn1
    x, -3.9
14. CCC(=O)NCCc1cc2c(OC)ccc(OC)c2[nH]c1=O
    9, 2.2
15. COC(=O)c1ccc(COC(=O)c2n[nH]c3ccccc23)o1
    -9, x
16. Cc1cc(=O)oc2cc(OCc3nnc(-c4ccccc4)o3)ccc12
    3, 0.3
17. Cc1c2c(c(C#N)c3nc4ccccc4n13)CCCC2
    2, x
18. CC(Sc1cccc[n+]1[O-])C(=O)Nc1cc(C(F)(F)F)ccc1Cl (stereo unspecified)
    10, 0.0
19. Cn1cc(CC(=O)NCc2ccccn2)c2ccccc21
    6, x
20. Cc1ccc(C)n1-c1ccc(C(=O)O)cc1O
    -13, x
21. COc1ccc(-n2nnc3c(SCC(=O)NC4CCCCC4)ncnc32)cc1
    22, x
22. COC(=O)C(CCSC)NC(=O)c1ccc(C(F)(F)F)cc1 (stereo unspecified)
    x, 0.5
23. CCn1nc(C)c(CCC(=O)O)c1C
    19, x
24. Cc1ccc(S(=O)(=O)N2CCCCC2C(=O)O)cc1 (stereo unspecified)
    -11, x
25. CO/N=C1\CCCc2c(C(=O)NN)sc(SC)c21
    16, x
26. COc1ccc(C(=O)Nc2ccc(-n3nncc3-c3ccccc3)cc2)cc1
    12, x
27. O=c1c(-c2ccc(Cl)cc2Cl)c(C(F)(F)F)oc2cc(O)ccc12
    16, 0.0
28. CC(O)Cn1c(Br)nc2c1c(=O)n(C)c(=O)n2C (stereo unspecified)
    -7, 1.1
29. CCn1c(-c2ccco2)nn(CN(C)Cc2cccc(Cl)c2)c1=S
    3, x
30. O=c1[nH]ccn(-c2ccccc2)c1=O
    6, 0.7

The closing 5 compounds of the section before open the next one:
Below each SMILES – Sa helicase inh, MgrA DNA FP
26. COc1ccc(C(=O)Nc2ccc(-n3nncc3-c3ccccc3)cc2)cc1
    12, x
27. O=c1c(-c2ccc(Cl)cc2Cl)c(C(F)(F)F)oc2cc(O)ccc12
    16, 0.0
28. CC(O)Cn1c(Br)nc2c1c(=O)n(C)c(=O)n2C (stereo unspecified)
    -7, 1.1
29. CCn1c(-c2ccco2)nn(CN(C)Cc2cccc(Cl)c2)c1=S
    3, x
30. O=c1[nH]ccn(-c2ccccc2)c1=O
    6, 0.7
31. CC1(C)CC(=O)C2=C(C1)OC(N)=C(C#N)C2c1ccccc1 (stereo unspecified)
    x, 2.2
32. c1ccc(OCCCn2nnc(-c3ccncc3)n2)cc1
    -1, 18
33. CNC(=O)NC(=O)C(c1ccccc1)N1CCCC(c2nnc3ccc(C(F)(F)F)cn23)C1 (stereo unspecified)
    -17, x
34. CCc1ccc(CNC)cc1
    -22, x
35. CS(=O)(=O)/N=C(\N)c1ccncc1
    x, -1.2
36. CCOc1ccc(NC(=O)C2C3C=CC4(O3)C2C(=O)N(C(C)C)C4C(=O)NC2CCCCC2C)cc1 (stereo unspecified)
    10, -2.5
37. CCN(CC)C(=O)CSC1=C(C#N)C(c2ccccc2F)C(C(=O)Nc2ccccc2)=C(C)N1 (stereo unspecified)
    5, x
38. Cc1cccc(CN2C(=O)C(O)(CC(=O)c3ccco3)c3ccccc32)c1 (stereo unspecified)
    6, -3.5
39. CC(=O)Nc1ccccc1C(=O)NCc1ccco1
    -13, 3.3
40. CCOC(=O)c1c(C)nc(-c2ccccc2)nc1NC(=O)CC
    -9, x
41. CC1=C(C(=O)Nc2ccccc2)C(c2ccc3c(c2)OCO3)C2=C(CC(C)(C)CC2=O)N1 (stereo unspecified)
    0, -1.6
42. CC(C)(C)c1cc(OC(=O)c2ccc(C(F)(F)F)cc2)c(C(C)(C)C)cc1OC(=O)c1ccc(C(F)(F)F)cc1
    x, -1.5
43. O=C(O)CC1(CC(=O)NCc2cccnc2)CCCCC1
    -6, x
44. c1ccc(NC2=NCCC2)cc1
    1, x
45. O=C(c1ccc(N2CCCC2)c(NC(=S)NC2CCCC2)c1)N1CCCC1
    8, 5.2
46. O=C(O)c1ccccc1SC1CC(=O)N(Cc2ccccc2)C1=O (stereo unspecified)
    8, -8.9
47. C/C(=N\N1C(=O)c2ccccc2NC1c1ccccc1)c1ccccc1O (stereo unspecified)
    8, 1.6
48. CCCNC(=O)COc1ncnc2ccccc12
    10, x
49. COC(=O)c1ccccc1N(C)C(=O)c1cc(OC)c(OC)c(OC)c1
    -34, x
50. C=CCOc1ccc(/C(O)=C2/C(=O)C(=O)N(Cc3ccco3)C2c2ccccc2)cc1 (stereo unspecified)
    3, x
51. COc1ccccc1C(=O)Oc1ccc2ccc(=O)oc2c1
    7, x
52. Cc1ccc2[nH]c3c(=O)n(CC(=O)N(CC(C)C)CC(C)C)ncc3c2c1
    12, x
53. O=C(CNc1ccc2c(c1)oc1ccccc12)c1ccc2c(c1)OCO2
    9, 5.2
54. Brc1cccc(OCCOc2cccc(-n3cnnn3)c2)c1
    11, x
55. NC(=O)CC(c1ccccc1)c1ccc2c(c1)OCO2 (stereo unspecified)
    5, -4.7
56. CC(C)(C)NC(=O)c1ccc2c(c1)C(=O)N(C1CCCCC1)C2=O
    19, 3.8
57. O=C1COc2ccc(C(=O)CSc3nc4cc(Cl)ccc4c(=O)n3C3CCCC3)cc2N1
    -4, x
58. NC(=O)CSC1=N/C(=C\c2ccco2)C(=O)N1c1ccc(OC(F)F)cc1
    -11, x
59. O=C(NCCN1CCCC1)c1ccc2c(c1)OCCO2
    4, 18
60. O=C1CCCN1c1ccc(S(=O)(=O)NCCc2ccccc2)cc1
    11, x

Next part; the last 5 above are carried over.
Below each SMILES – Sa helicase inh, MgrA DNA FP
56. CC(C)(C)NC(=O)c1ccc2c(c1)C(=O)N(C1CCCCC1)C2=O
    19, 3.8
57. O=C1COc2ccc(C(=O)CSc3nc4cc(Cl)ccc4c(=O)n3C3CCCC3)cc2N1
    -4, x
58. NC(=O)CSC1=N/C(=C\c2ccco2)C(=O)N1c1ccc(OC(F)F)cc1
    -11, x
59. O=C(NCCN1CCCC1)c1ccc2c(c1)OCCO2
    4, 18
60. O=C1CCCN1c1ccc(S(=O)(=O)NCCc2ccccc2)cc1
    11, x
61. COc1ccc(OCc2nnc(SCc3cc(=O)n4ccsc4n3)n2Cc2ccco2)cc1
    -5, x
62. O=C(Nc1cc(C(F)(F)F)ccc1N1CCOCC1)c1cccnc1Oc1ccccc1
    x, -2.8
63. CC(C)NC(=O)c1ccc(Cl)c(S(=O)(=O)Nc2ccc(Cl)cc2)c1
    4, -1.2
64. COc1ccc(/C=C2\SC(=S)N(CCC(=O)NCCO)C2=O)cc1
    -1, 4.3
65. Cc1nn(-c2ccccc2Cl)c(Cl)c1C=Nc1cc(Cl)ccc1C#N
    -17, x
66. Fc1ccc(CN2CCCN(c3ccc4c(c3)OCCO4)CC2)cc1
    -1, -8.4
67. CCOC(=O)CSC1=N/C(=C/c2ccsc2)C(=O)N1c1ccccc1
    -1, -0.6
68. Cc1cc(Nc2ccccc2)n2cnnc2n1
    -12, 1.6
69. CC1=C(C(=O)OC2CCCC2)C(c2coc3ccc(C)cc3c2=O)C2=C(CCCC2=O)N1 (stereo unspecified)
    x, -0.9
70. O=C(O)CCc1ccc(-c2ccc(F)cc2)n1Cc1ccco1
    0, x
71. CC(C)CN(C(=O)Cn1nnnc1N)C1(C(=O)Nc2ccccc2)CCCCC1
    9, x
72. CC1=CC(C)C(C2OC(C)CC(C)(C)O2)C(C)C1 (stereo unspecified)
    18, x
73. CCCCn1nc(NC(=O)C(C)C)c2cc3cc(OC)ccc3nc21
    -7, 0.0
74. COc1ccc(C=Nc2ccc(-c3csnn3)cc2)cc1
    x, 0.0
75. N#C/C(=C\NCc1cc(C(F)(F)F)cc(C(F)(F)F)c1)S(=O)(=O)Cc1ccco1
    x, 2.1
76. COc1ccc(C(c2ccc3cccnc3c2O)N2CCCC2)cc1 (stereo unspecified)
    -20, -7.3
77. O=C(Nc1ccccc1N1CCCCC1)C1=CCCCC1C(=O)O (stereo unspecified)
    x, 0.1
78. NNC(=O)CNS(=O)(=O)c1ccccc1
    0, -0.4
79. Cc1cccnc1NC(=S)Nc1cccc(C(F)(F)F)c1
    x, -1.5
80. Cc1[nH]c(C)c2c(=O)n(-c3ccccc3)ncc12
    14, x
81. CNC(=O)CCC(=O)N1CC(C)Oc2ccccc21 (stereo unspecified)
    28, x
82. C=CCOC(=O)C1=C(C)Nc2[nH]c(=O)[nH]c(=O)c2C1c1ccccc1 (stereo unspecified)
    2, x
83. Cc1ccc2nc(COC(=O)/C=C/c3c(C)nn(C4CCS(=O)(=O)C4)c3Cl)cc(=O)n2c1 (stereo unspecified)
    0, x
84. CN1C(=S)N(C2CCCCC2)C(=O)/C1=C/c1ccccc1O
    6, 0.0
85. COc1c(C(=O)NC(=S)NCc2ccco2)cc2ccccc2c1Br
    3, 2.5
86. O=C(O)C1CCN(c2nccs2)CC1
    7, x
87. CN=C(Nc1ccnn1C1CCCCC1)c1ccccc1
    6, x
88. Cc1ccc(CN(C)C(=O)C2CCCCC2)o1
    28, x
89. O=C(NCC1CCCO1)c1ccc(NC(=O)c2ncn[nH]2)cc1 (stereo unspecified)
    5, 2.1
90. CCOc1ccc(C=C2C(=O)OC(c3ccccc3)OC2=O)cc1 (stereo unspecified)
    10, 16

Among those listed so far, these have an NH in an aromatic ring:
Below each SMILES – Sa helicase inh, MgrA DNA FP
14. CCC(=O)NCCc1cc2c(OC)ccc(OC)c2[nH]c1=O
    9, 2.2
15. COC(=O)c1ccc(COC(=O)c2n[nH]c3ccccc23)o1
    -9, x
30. O=c1[nH]ccn(-c2ccccc2)c1=O
    6, 0.7
52. Cc1ccc2[nH]c3c(=O)n(CC(=O)N(CC(C)C)CC(C)C)ncc3c2c1
    12, x
80. Cc1[nH]c(C)c2c(=O)n(-c3ccccc3)ncc12
    14, x
82. C=CCOC(=O)C1=C(C)Nc2[nH]c(=O)[nH]c(=O)c2C1c1ccccc1 (stereo unspecified)
    2, x
89. O=C(NCC1CCCO1)c1ccc(NC(=O)c2ncn[nH]2)cc1 (stereo unspecified)
    5, 2.1

Down the list, quoted from above:
MgrA DNA FP for entries 69–78 → -0.9, x, x, x, 0.0, 0.0, 2.1, -7.3, 0.1, -0.4

(continued)
Below each SMILES – Sa helicase inh, MgrA DNA FP
91. CCOC(=O)c1cnn(-c2ncnc3c2cnn3C)c1C(F)(F)F
    -8, x
92. CCC(C)c1ccc(NC(=O)COC(=O)c2cccc(F)c2)cc1 (stereo unspecified)
    6, 0.3
93. CCOC(=O)c1oc2ccc(Br)cc2c1CSc1nnc(C(C)(C)C)n1N
    12, x
94. Cc1ccnc(NC(=O)CCC2COc3ccccc3O2)c1 (stereo unspecified)
    -7, 0.1
95. O=C(COC(=O)c1ccccc1)Nc1ncc(C(F)(F)F)cc1Cl
    6, -0.8
96. O=C(O)c1ccccc1Nc1ccccc1
    x, 0.4
97. CCCc1[nH]nc2c1C(c1cccc(OC)c1)C(C#N)=C(N)O2 (stereo unspecified)
    17, x
98. CSC(=S)Nc1ccc(F)cc1F
    x, 2.1
99. CC(C)(C#Cc1cncnc1)OC(=O)Nc1ccc(Cl)cc1
    x, -1.8
100. Cc1cc(C)cc(OCc2ccc(C(=O)NC3CCOC3=O)o2)c1 (stereo unspecified)
    14, x
101. CCCn1nnnc1NCc1ccc(C(C)C)cc1
    13, -1.2
102. Cc1ccc(NCC#N)cc1
    -4, 0.0
103. Cc1nc(SCC(=O)O)c(C#N)cc1C(=O)Nc1ccccc1
    -10, x
104. CCOC(=O)Cn1c(C(F)(F)F)nc2ccccc21
    3, x
105. Cc1ccc2[nH]c(=O)c3cc(C(=O)NCCCN4C(C)CCCC4C)sc3c2c1 (stereo unspecified)
    13, x
106. Cc1oc(-c2ccc(C(=O)NC3CC3)cc2)nc1COc1ccccc1
    9, x
107. Cc1cc(C)c2c(N)c(C(=O)c3ccccc3)sc2n1
    x, 0.3
108. COc1ccccc1CNC(=O)c1nn(C)c2c1COc1ccccc1-2
    13, 0.5
